LANA-H2A inh: blockers of LANA interaction with H2A/H2B – biochemical, FP readout, HTS, primary screen; Protein LANA1 (Human herpesvirus 8 type P (isolate GK18)), Q9QR71; hit rate 0.6% among 320,000; cell-free LANA-H2A/H2B peptide, fluorescence polarization; inhibition, % (test concentration not listed); AID 2629, 2010; in the data active = inhibition mostly above about 10%, no sharp cut-off; inactive = mostly below about 6.7%;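 also: stock transfer was 7.5 nL into about 10 µL; 0% = median of vehicle wells and 100% = median of positive control wells; one replicate is shown; the record names a cut of 25% in any replicate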
Vif A3G: inhibitors of Vif binding to APOBEC3G peptide, primary screen, biochemical, TR-FRET, GST-Vif 1-94, biotin-A3G peptide, dose response retest (AID 1117319). TR-FRET GST-Vif / biotin-A3G peptide binding; higher % means a stronger effect; test concentration not given here; strong numbers were not always called active. inhibition, %, or IC50 in µM where a hit was titrated. Virion infectivity factor (Human immunodeficiency virus type 1 group M subtype B (isolate …. hit rate 0.57% among 260,000;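 active = above the screen mean plus three standard deviations and confirmed in dose response; inconclusive = results disagree or hit not tested in dose response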;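 also: Vif residues 1-94 fused to GST binding biotinylated APOBEC3G peptide 110-148; 0% = full assay without inhibitor and 100% = GST in place of GST-Vif; retest series ran down from 100 µM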
Calb FLC: C. albicans growth inhibition with fluconazole, primary screen, CaCi-2 strain, Alamar Blue fluorescence | C. albicans CaCi-2 (fluconazole-resistant clinical isolate) + fluconazole, 48 h | growth inhibition, % (test concentration not listed) | hit rate 0.57% among 300,000;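 active = most replicates above 75%; inconclusive = exactly half above 75%; inactive = most below 75%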;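 also: all wells also contain fluconazole at 8 µg/ml as a sub-toxic cotreatment; 0% = median of DMSO wells and 100% = median of geldanamycin control wells; wells of about 8 µL received 7.5 nL stock; the first replicate is given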
HNF4A DNA FP: change in binding of human HNF4A to DNA, primary screen, biochemical, fluorescence polarization, FITC-DNA. Hepatocyte nuclear factor 4-alpha (Homo sapiens), P41235. 1 h. activity change, % at 10 µM. hit rate 0.3% among 360,000; in the data active = activity change above about 30%, passing the limit was not always enough;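 also: controls were the assay level and a saturating level of protein; the project sought stronger binding though the title names inhibitors; some compounds called inactive have numbers as strong as hits; positive values seem to mean higher polarization but the record does not say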
Target sequence (P41235 whole entry, looked up): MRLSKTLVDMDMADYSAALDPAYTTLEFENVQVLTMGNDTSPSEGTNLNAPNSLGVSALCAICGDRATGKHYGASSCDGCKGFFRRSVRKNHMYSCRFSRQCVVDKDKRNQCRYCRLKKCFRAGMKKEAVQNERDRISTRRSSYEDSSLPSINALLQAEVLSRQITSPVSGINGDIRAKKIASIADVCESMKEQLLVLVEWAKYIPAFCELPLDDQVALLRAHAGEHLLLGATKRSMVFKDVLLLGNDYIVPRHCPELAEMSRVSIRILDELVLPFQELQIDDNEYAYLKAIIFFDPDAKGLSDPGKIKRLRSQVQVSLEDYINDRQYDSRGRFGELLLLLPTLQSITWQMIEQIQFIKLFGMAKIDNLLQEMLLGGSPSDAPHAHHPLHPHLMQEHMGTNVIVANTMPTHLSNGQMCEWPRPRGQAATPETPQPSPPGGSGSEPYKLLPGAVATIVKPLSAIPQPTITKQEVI
ALR H2O2 inh: inhibitors of human ALR sulfhydryl oxidase, primary screen, biochemical, H2O2 detection, HRP-luminol luminescence, single point; purified ALR, DTT oxidation; inhibition, % (test concentration not listed); hit rate 3.8% among 290,000; AID 485317, 2010;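 active = mean and each replicate at 75% or more; inconclusive = only one of the two met; inactive = neither met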;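 also: stock transfer was 7.5 nL into about 7.5 µL; 0% = neutral wells and 100% = wells with inactivated enzyme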
Target sequence (P55789 whole entry, looked up): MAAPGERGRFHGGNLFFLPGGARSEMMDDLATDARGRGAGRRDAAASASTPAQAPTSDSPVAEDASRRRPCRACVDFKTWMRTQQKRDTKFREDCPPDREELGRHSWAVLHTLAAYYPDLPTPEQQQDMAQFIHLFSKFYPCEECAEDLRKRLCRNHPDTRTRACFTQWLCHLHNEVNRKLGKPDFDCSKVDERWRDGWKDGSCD
B2AR ag: beta2AR agonists driving receptor internalization, primary screen, cell-based, FAP fluorogen, flow cytometry. hit rate 0.43% among 340,000. response, % (no concentration beside the values). Am2.2-beta2AR cells; reference of the scale not given here. AID 504454, 2011;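 active = response above a set limit, near 3 SD of response in nonfluorescent compounds, cut at about 42% in these data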;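 also: stock transfer was 100 nL into about 11 µL; a reference agonist was the positive control; negative values mostly stem from fluorescent compounds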
Target sequence (P07550 whole entry, looked up): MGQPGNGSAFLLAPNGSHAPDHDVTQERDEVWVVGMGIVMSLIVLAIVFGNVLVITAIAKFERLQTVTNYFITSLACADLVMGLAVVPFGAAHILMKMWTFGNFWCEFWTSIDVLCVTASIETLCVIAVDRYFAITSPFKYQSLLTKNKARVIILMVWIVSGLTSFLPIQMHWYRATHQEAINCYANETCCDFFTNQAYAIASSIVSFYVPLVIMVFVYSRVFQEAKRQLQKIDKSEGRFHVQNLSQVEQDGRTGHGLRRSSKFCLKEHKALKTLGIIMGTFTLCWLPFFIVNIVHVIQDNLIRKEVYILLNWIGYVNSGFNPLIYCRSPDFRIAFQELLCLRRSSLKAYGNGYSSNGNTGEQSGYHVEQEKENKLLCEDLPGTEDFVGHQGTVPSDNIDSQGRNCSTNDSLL
RanGTP-Impb inh: inhibitors of RanGTP-importin-beta interaction, primary screen, biochemical, FRET, CFP-Ran, YFP-importin-beta, homogeneous; Ran GTPase (GTP-bound) - importin-beta complex; cell-free CFP-Ran/YFP-importin-beta FRET ratio; inhibition, % (test concentration not listed); hit rate 1.1% among 300,000; AID 2216, 2009;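 active = most replicates above 15%; inconclusive = exactly half above 15%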;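 also: 0% = DMSO wells and 100% = Ran loaded with GDP instead of GTP; wells of about 40 µL received 100 nL stock; the first replicate is given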
Starred values were filed as active, the others as inactive; ? = inconclusive; · = no result given.

SMILES	LANA-H2A inh	Vif A3G	Calb FLC	HNF4A DNA FP	ALR H2O2 inh	B2AR ag	RanGTP-Impb inh
Cc1ccc(C)c(NC(=O)c2cc(-c3cc(C)c(C)cc3O)n[nH]2)c1	0.5	-3%	11	4.4	8	12	-4.2
Cc1ccc2oc(/N=C(\N)NC(=O)C(C)(C)C)nc2c1	-1.1	?	5	0.7	3	0	2.0
Cn1c(SCC(=O)N2CCN(c3ccccc3)CC2)nnc1-c1ccccc1	-0.2	-1%	1	-4.0	40	-5	-0.4
Cc1cc(C)n(-c2nc3ccccc3nc2N2CCN(S(=O)(=O)c3ccc(F)c(C)c3)CC2)n1	2.8	15%	-11	0.1	-14	2	8.7
COc1cc(CC(=O)O)c(C(C)=O)cc1OC	-4.0	22%	4	1.7	-4	-2	5.3
COc1cc2c(cc1O)CCN(C(=O)c1ccco1)C2C (configuration not stated)	-1.1	1%	-3	1.9	74	0	-3.0
Cc1c(/C=N/n2cnnc2)c2ccccc2n1CCOc1ccc(Cl)cc1	1.9	-1%	-8	-0.5	25	19	3.2
CC(C)CC(CC(C)C)=NNC(=O)c1ccc(CSc2nncn2C)cc1	2.6	-4%	-5	2.7	98*	0	-2.0
COc1cc(O)c(C(=O)/C=C/c2ccccc2)c(OC)c1	-1.8	4%	1	-3.4	7	3	8.5
CC(C)CN(C(=O)COC(=O)c1ccc2ccccc2c1)c1c(N)n(Cc2ccccc2)c(=O)[nH]c1=O	-5.7	2%	4	-2.5	1	2	-4.0
CC(C)NC(=O)COC(=O)c1cncc(Br)c1	6.6	·	22	-6.5	-2	5	2.0
COCCNC(=O)c1ccc2c(c1)ncn2-c1ccc(C)c(Cl)c1	1.8	-1%	5	-2.0	1	-8	-5.0
CC(C)(C)SCCNC(=O)COc1ccc(Cl)cc1	6.0	-3%	0	0.6	2	-5	2.2
CCn1nccc1C(=O)NC1=C(C#N)CCC1	1.8	4%	-2	0.6	1	7	-11
Cc1cc(NC(=O)NC(C)(C(F)(F)F)C(F)(F)F)no1	0.9	-5%	5	-3.3	-6	3	-1.0
CN(C)C(=S)SCC(=O)NC(=O)NC(C)(C)C	0.5	?	-13	0.5	-3	-4	4.8
CC(Sc1nnc(-c2cccs2)n1N)C(=O)NCC1CCCO1 (configuration not stated)	2.5	3%	·	-0.8	3	-3	2.2
C=CCn1c(CNC(=O)c2ccco2)nnc1SCC(=O)c1ccccc1	-2.0	16%	-2	2.3	33	-5	3.3
Cc1ccccc1OCC(=O)OCC(=O)NCC1CCCO1 (configuration not stated)	-3.5	-4%	21	-1.4	3	-1	1.3
COc1ccccc1N(C)S(=O)(=O)c1ccc(C(=O)N(CC(N)=O)C(C)C)cc1	-5.5	0%	-4	0.5	-14	5	1.0
O=C(NC1CC1)c1sc2cc([N+](=O)[O-])ccc2c1Cl	4.1	7%	?	-3.2	-17	-7	0.9
CCN=C1S/C(=C\c2cn(CC)c3ccccc23)C(=O)N1CC	-3.4	9%	57	-0.9	-8	-30	2.3
COc1ccccc1C(=O)CC(=O)C(=O)Nc1cccc([N+](=O)[O-])c1C	-2.4	5%	-13	1.1	40	10	5.8
COc1ccc(F)cc1Cn1nc(C(=O)O)c2ccccc2c1=O	2.9	2%	7	2.2	2	23	1.5
c1ccc(-c2nc(CSc3n[nH]c(-c4cccs4)n3)cs2)cc1	2.3	-2%	4	3.1	98*	-15	-1.0
Cc1ccc2c(c1)cc(CN(Cc1cccnc1)C(=O)NCc1ccccc1)c1nnnn12	-2.5	-1%	1	-2.4	-4	-18	-2.1
CCCN(CCC)CCNC(=S)Nc1ccc2nc3n(c(=O)c2c1)CCCCC3	2.4	-4%	38	-1.5	12	3	-1.6
Cc1cccn2c(=O)c3cc(C(=O)NCC4CCCO4)c(=N)n(CC4CCCO4)c3nc12 (configuration not stated)	0.9	·	-8	1.2	3	-10	188*
CC(C)OC(=O)Cn1nc(C(F)(F)F)c2c1CCCC2	3.1	-7%	-5	0.1	3	5	-2.5
CCOc1ccc(NC(=O)[C@@H](NC(=O)c2ccccc2Br)C(C)C)cc1	2.5	29%	-46	6.3	-7	-1	1.4

Fetched by structure from the list above (five):
SMILES	LANA-H2A inh	Vif A3G	Calb FLC	HNF4A DNA FP	ALR H2O2 inh	B2AR ag	RanGTP-Impb inh
CN(C)C(=S)SCC(=O)NC(=O)NC(C)(C)C	0.5	?	-13	0.5	-3	-4	4.8
c1ccc(-c2nc(CSc3n[nH]c(-c4cccs4)n3)cs2)cc1	2.3	-2%	4	3.1	98*	-15	-1.0
CCOc1ccc(NC(=O)[C@@H](NC(=O)c2ccccc2Br)C(C)C)cc1	2.5	29%	-46	6.3	-7	-1	1.4
Cc1cccn2c(=O)c3cc(C(=O)NCC4CCCO4)c(=N)n(CC4CCCO4)c3nc12 (configuration not stated)	0.9	·	-8	1.2	3	-10	188*
COc1ccc(F)cc1Cn1nc(C(=O)O)c2ccccc2c1=O	2.9	2%	7	2.2	2	23	1.5

Carrying on.
SMILES	LANA-H2A inh	Vif A3G	Calb FLC	HNF4A DNA FP	ALR H2O2 inh	B2AR ag	RanGTP-Impb inh
O=[N+]([O-])c1cc(S(=O)(=O)C(F)(F)F)ccc1N1CCN(c2ccccc2)CC1	-8.4	·	-2	-2.0	-1	-1	4.6
CCOC(=O)C1=C(C)c2ccccc2OC1(C(=O)OCC)C(C)C (configuration not stated)	·	1%	·	0.2	·	-12	·
C=CCn1nnnc1SCC(=O)Nc1cccc(OC)c1	1.3	11%	?	-1.1	-10	-8	2.2
CCOc1ccc(CCNC(=O)COC(=O)c2cc(OC)c(OC)cc2[N+](=O)[O-])cc1OCC	4.7	3%	2	-2.8	-10	-4	-0.5
O=S(=O)(c1cccc2cccnc12)N(CCO)CCO	0.1	-6%	2	0.1	-52	7	3.4
COc1ccc(S(=O)(=O)N2CCN(C(=O)c3ccc([N+](=O)[O-])o3)CC2)cc1	-5.2	·	-2	0.3	-49	0	7.1
CC(=O)c1cccc(NC(=O)C2CCCN(S(=O)(=O)c3cccc4cccnc34)C2)c1 (configuration not stated)	5.3	0%	-3	-0.3	-15	2	-2.8
Cc1ccc(Cn2c(CCNc3nc(-c4ccc(Cl)c([N+](=O)[O-])c4)cs3)nc3cc(Cl)c(Cl)cc32)cc1	8.5	·	2	1.9	-6	2	?
O=C(COC(=O)/C=C/c1ccc([N+](=O)[O-])cc1)NCc1cccs1	1.1	·	·	-0.4	1	3	·
O=C(O)c1cc(Cl)c(Cl)cc1C(=O)N(Cc1ccccc1)Cc1ccccc1	1.6	-5%	4	0.6	9	0	4.8
CCN(C(=O)COC(=O)c1cc([N+](=O)[O-])ccc1N1CCCCC1)C1CCS(=O)(=O)C1 (configuration not stated)	-3.7	-10%	-3	3.7	-2	2	-1.8
c1ccc2c(c1)CSc1ccccc1N2	3.9	·	-25	3.6	98*	-3	-4.2
CCCn1cc(CN2CCC(n3nccc3NC(=O)CCOc3ccccc3)CC2)c(C)n1	3.6	·	9	-0.4	-2	2	0.7
CCOC(=O)c1ccc(Nc2ncnc3c2cnn3C)cc1	4.2	-8%	-3	1.4	-2	-9	-3.6
Cc1sc(/N=C/c2ccccc2O)c(C#N)c1C	2.5	0%	-5	·	5	·	-7.3
CCCn1c(NCc2cc(C)ccc2O)nc2ccccc21	2.5	29%	35	-2.6	·	-8	28*
CN(c1ccccc1)S(=O)(=O)c1ccc(NC(=O)c2ccccc2)cc1	-2.0	20%	2	2.4	-5	3	-2.2
CC(NC(=O)Nc1ccc(O)cc1)(C(F)(F)F)C(F)(F)F	-1.7	?	10	0.3	98*	4	-3.9
Cc1nn(CC(=O)Nc2ccc(Br)cc2F)c(=O)c2cccn12	0.2	·	0	1.2	1	-8	0.6
O=C(COc1ccc2c3c(c(=O)oc2c1)CCC3)NCc1ccncc1	0.2	·	11	6.1	-1	-4	1.1
CC(C)(C)N(Cc1ccccc1)C(=O)COC(=O)/C=C/c1ccc2c(c1)OCO2	-1.2	-3%	·	2.2	-1	0	·
CC(=O)Nc1cc2c3ccccc3ccc2c2ccccc12	·	-14%	·	8.1	·	1	·
C=CCn1c(SCC(=O)NC2CC2)nc2sc(CC)cc2c1=O	1.2	2%	57	0.7	-3	-17	-1.1
CCN=C(NCC)SC1CC(=O)N(c2cccc(OC)c2)C1=O (configuration not stated)	-0.4	2%	23	0.5	-4	2	2.2
COc1ccc(-n2c(CNC(=O)c3ccc(S(=O)(=O)N4CCCC4)cc3)n[nH]c2=S)cc1	7.8	7%	-7	1.2	91*	4	?
O=C1CCCN1CCC1CCCCN1Cc1nc(-c2cnccn2)no1 (configuration not stated)	-1.8	-1%	2	-0.5	·	5	-2.4
COc1cc(CN2CCCC(N3CCN(c4ccccc4C)CC3)C2)cc(Cl)c1O (configuration not stated)	-6.6	·	6	1.1	·	2	-3.0
COc1ccc(O)c(-c2cn[nH]c2-c2cccs2)c1	5.2	-2%	23	-0.7	·	2	0.9
O=C(CSc1nc(=O)n2cc(Cl)ccc2n1)Nc1ccc2c(c1)OCO2	-1.9	2%	-5	3.8	68	21	-1.9
Cc1nn(C)cc1/C=C1\CCC/C(=C\c2cn(C)nc2C)C1=O	-2.5	-2%	3	11	7	2	5.8
O=C(CCn1c(=O)oc2ccccc21)Nc1ccon1	2.9	1%	-7	0.1	-6	-14	-0.4
CCCCNc1c([N+](=O)[O-])cc(C)cc1[N+](=O)[O-]	0.4	-1%	?	3.6	2	-4	-7.0
O=C(CSc1nnc(CN2CCCCCC2=O)n1-c1ccccn1)NCC(F)(F)F	2.4	-3%	-5	-3.4	-4	3	7.3
C=C(C)CSc1nnc(-c2cc(OC)c(OC)c(OC)c2)n1N	-4.0	-5%	30	-1.8	-5	3	1.9
CCn1c(SCC(=O)Nc2nc(-c3ccc(C)cc3)cs2)nnc1-c1ccccc1O	0.8	-1%	0	2.2	1	11	2.3
CC(=O)N1c2ccccc2CCc2ccc(N)cc21	-2.2	·	-1	3.0	-10	6	3.7
Cc1cc(OCc2ccc(F)cc2)nc(-c2ccccc2O)n1	3.1	-11%	14	-1.1	-18	7	-0.6
COc1ccc(C2(C)NC(=O)N(CC(=O)Nc3ccc4[nH]c(=O)[nH]c4c3)C2=O)cc1 (configuration not stated)	2.4	4%	7	6.4	-129	7	2.4
c1ccc(-c2nc(NCc3ccco3)c3ccccc3n2)cc1	0.0	?	41	1.3	6	-10	2.2
CC(C)CC(C)c1cc(N)nc2nc3ccccc3n12 (configuration not stated)	3.9	9%	-11	2.8	-26	12	9.1
Cn1c(SCC(=O)N2CCc3ccccc3C2)nnc1-c1cccs1	4.2	7%	0	2.8	32	-17	7.8
CCOc1ccccc1NC(=S)N1CCN(c2cccc(OC)c2)CC1	-2.3	-3%	0	3.4	98*	-4	-0.9
COc1cccc(N2C(=O)C3NN=C(C(=O)CN4C(=O)c5ccccc5C4=O)C3C2=O)c1 (configuration not stated)	0.2	·	-3	2.3	·	-4	1.4
Cc1occc1-c1nnc(SCC(=O)NC(=O)NC(C)C)n1N	1.9	-1%	1	3.2	13	-2	0.2
C=CCn1c(COc2ccc(CC)cc2)nnc1SCC(=O)NC1CCS(=O)(=O)C1 (configuration not stated)	0.3	2%	-18	2.8	-3	1	-2.1

Screens from PubChem BioAssay.
